# Vaccinia inh: blocks a specific stage of Vaccinia orthopoxvirus infection; AID 1053133; actives 0.01% (n = 89,000); activity change (mCherry), % (concentration not given with the values); Vaccinia-infected cells, mCherry/Venus stage reporter fluorescence; stronger effect = lower value; some inactives read as strong as hits;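 active = mCherry past -33% and 40 or more points under the early reporter, replicates agreeing; inconclusive = past -33% without that gap or agreement; tested in A549 cells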;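 note: scaled between vehicle wells and reference inhibitor wells; 23 nL library stock went into each well; one replicate is shown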
# Vaccinia inh Venus: recorded beside Vaccinia inh, whose call it bears; activity change (Venus), %; measured here: Venus reporter, other viral stage;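 negative = less Venus signal; first of two replicates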
# An asterisk follows results filed as active; ? = inconclusive; / = not tested or not shown; & = joins results of further samples. These rows are one share of the data, so the mix of outcomes need not match the whole.
SMILES,Vaccinia inh,Vaccinia inh Venus
COc1ccc(NC(=O)Nc2ccc3c(c2)C(=O)N([C@H](C)CO)C[C@H](C)[C@H](CN(C)C(=O)Nc2cccc4ccccc24)O3)cc1,12.1,12.6
O=C(NCCc1ccccc1)[C@H]1[C@H](CO)[C@H]2Cn3c(cccc3=O)[C@H]2N1Cc1cccnc1,-7.8,-10.8
Cc1ccc(S(=O)(=O)N(C)C[C@@H]2Oc3ccc(NS(=O)(=O)c4ccc(F)cc4)cc3CC(=O)N([C@@H](C)CO)C[C@H]2C)cc1,2.9,-2.7
CCC(=O)N[C@H]1CC[C@H](CC(=O)NCc2ccccc2OC)O[C@@H]1CO,1.4,7.9
O=C(C[C@@H]1CC[C@H]2[C@@H](COC[C@@H](O)CN2Cc2cccc(Cl)c2)O1)N1CCOCC1,0.4,-4.1
CC(C)NC(=O)N(C)C[C@@H]1Oc2ccc(N(C)C)cc2C(=O)N([C@@H](C)CO)C[C@H]1C,13.2,-2.9
O=C(N[C@H]1CC[C@H](CCNC(=O)C2CCCC2)O[C@@H]1CO)c1ccncc1,2.4,0.1
CNC[C@@H]1Oc2ccc(NS(C)(=O)=O)cc2C(=O)N([C@@H](C)CO)C[C@H]1C,1.6,3.4
O=C(C[C@@H]1CC[C@@H](NC(=O)c2ccccc2)[C@H](CO)O1)Nc1ccc(-c2ccccc2)cc1,-20.9,-10.8
O=C(C[C@@H]1C[C@@H]2c3cc(NC(=O)Nc4ccccc4)ccc3O[C@@H]2[C@H](CO)O1)NCCN1CCCCC1,-4.8,-3.9
C[C@H](CO)N1C[C@H](C)[C@@H](CN(C)S(=O)(=O)c2ccccc2)OCCCC[C@H](C)Oc2ccc(NS(=O)(=O)c3ccccc3)cc2C1=O,?,/
Cc1noc(C)c1NC(=O)Nc1ccc2c(c1)C(=O)N([C@H](C)CO)C[C@@H](C)[C@H](CN(C)C(=O)NC1CCCCC1)O2,18.0,13.6
CCC(=O)N1[C@H](CNC(C)=O)[C@H](c2ccc(-c3ccc(F)cc3)cc2)[C@@H]1CO,9.4,8.1
C[C@@H]1CN([C@H](C)CO)C(=O)c2cc(NC(=O)CCCN(C)C)ccc2O[C@@H]1CN(C)S(=O)(=O)c1ccc(Cl)cc1,3.3,3.3
C[C@H]1CN([C@@H](C)CO)C(=O)Cc2cc(NS(=O)(=O)c3ccc(Cl)cc3)ccc2O[C@@H]1CN(C)C(=O)NC1CCCCC1,5.6,1.9
O=C(NC[C@H]1[C@H](c2ccccc2)[C@H](CO)N1CC1CCCC1)C1CC1,2.4,4.0
C[C@H]1CCCCO[C@H](CN(C)C(=O)CCCN(C)C)[C@@H](C)CN([C@@H](C)CO)C(=O)c2cc(NC(=O)c3ccccc3)ccc2O1,7.0,2.3
C[C@@H]1CN([C@@H](C)CO)C(=O)c2cc(NC(=O)Nc3cccc4ccccc34)ccc2O[C@@H]1CN(C)Cc1ccccc1,?,/
C[C@@H]1CN([C@@H](C)CO)C(=O)c2cc(C#Cc3cccc(F)c3)cnc2O[C@@H]1CN(C)CC1CCOCC1,-31.4,-15.3
C[C@H]1CCCCO[C@H](CN(C)S(=O)(=O)c2ccc(F)cc2)[C@@H](C)CN([C@@H](C)CO)C(=O)c2cc(NC(=O)c3ccccc3)ccc2O1,-32.2,-19.4

# Retrieved one by one from the entries so far:
SMILES,Vaccinia inh,Vaccinia inh Venus
O=C(C[C@@H]1CC[C@H]2[C@@H](COC[C@@H](O)CN2Cc2cccc(Cl)c2)O1)N1CCOCC1,0.4,-4.1
Cc1noc(C)c1NC(=O)Nc1ccc2c(c1)C(=O)N([C@H](C)CO)C[C@@H](C)[C@H](CN(C)C(=O)NC1CCCCC1)O2,18.0,13.6

# Further structures:
SMILES,Vaccinia inh,Vaccinia inh Venus
COCCNC(=O)C[C@@H]1C[C@H]2c3cc(NC(=O)COC)ccc3O[C@H]2[C@@H](CO)O1,14.5,12.7
C[C@@H]1CN([C@@H](C)CO)C(=O)c2cc(NS(=O)(=O)c3ccc(F)cc3)ccc2O[C@@H]1CN(C)Cc1ccc(Cl)c(Cl)c1,?,/
N#Cc1ccc(-c2ccc([C@@H]3[C@@H](CO)N4C(=O)CN(C(=O)C5CCC5)C[C@@H]34)cc2)cc1,?,/
C[C@@H](O)C#Cc1cnc2c(c1)C(=O)N([C@@H](C)CO)C[C@H](C)[C@H](CN(C)C(=O)Cc1ccccn1)O2,16.8,17.1
COc1ccc2c3c([nH]c2c1)[C@H](CO)N(Cc1cccc(F)c1)CC31CN(CC2CC2)C1,-8.3,-2.2
C[C@@H]1CN([C@H](C)CO)C(=O)c2cccc(NC(=O)Nc3ccc4c(c3)OCO4)c2O[C@@H]1CN(C)Cc1ccncc1,7.6,-2.8
COc1ccc([Si](C)(C)[C@@H]2[C@@H](CCO)O[C@]3(C(=O)N4c5c(cc(OC)cc53)C(C)=CC4(C)C)[C@H]2C)cc1,?,/
CCCN1[C@H](C(=O)OC)[C@@H](CO)[C@@H]2Cn3c(ccc(-c4cccc(OC)c4)c3=O)[C@@H]21,3.6,4.4
CCCC#Cc1cnc2c(c1)C(=O)N([C@@H](C)CO)C[C@H](C)[C@H](CN(C)C(=O)c1ccccc1)O2,-8.3,-0.2
COCC(=O)N1[C@@H]2c3ccc(C4=CCCC4)c(=O)n3C[C@@H]2[C@@H](CO)[C@@H]1C(=O)N1CCCCC1,17.9,4.3
N#C[C@@H]1[C@@H](c2ccc(-c3ccc(F)cc3)cc2)[C@@H](CO)N1S(=O)(=O)Cc1ccccc1,?,/
COc1ccc(CNC(=O)C[C@H]2C=C[C@@H](NC(=O)Nc3ccc4c(c3)OCO4)[C@H](CO)O2)cc1,-5.3,1.1
Cc1ccccc1-c1ccc([C@@H]2[C@H]3CN(S(=O)(=O)c4cn(C)cn4)CCCCN3[C@H]2CO)cc1,-0.5,-0.9
COCC(=O)N1CC2(C1)CN(Cc1ccccc1Cl)[C@H](CO)c1[nH]c3cc(OC)ccc3c12,8.7,5.4
Cc1noc(C)c1NC(=O)Nc1ccc2c(c1)CC(=O)N([C@H](C)CO)C[C@@H](C)[C@H](CN(C)S(=O)(=O)c1c(C)noc1C)O2,31.7,15.5
C[C@H](CO)N1C[C@H](C)[C@H](CN(C)S(=O)(=O)c2cccs2)OCCCC[C@H](C)Oc2ccc(NC(=O)CCC(F)(F)F)cc2C1=O,-14.3,-17.5
Cc1ccc(S(=O)(=O)Nc2cccc3c2O[C@@H](CN(C)Cc2ccc(C(=O)O)cc2)[C@H](C)CN([C@@H](C)CO)C3=O)cc1,8.5,6.2
CC(C)C#Cc1cnc2c(c1)C(=O)N([C@@H](C)CO)C[C@@H](C)[C@H](CN(C)C(=O)Nc1ccc(F)cc1)O2,-6.6,-2.4
C[C@@H]1CN([C@@H](C)CO)S(=O)(=O)c2ccc(Br)cc2O[C@@H]1CN(C)S(=O)(=O)c1ccccc1,?,/
O=C(c1ccncc1)N1CCCCN2[C@@H](CO)[C@H](c3ccc(-c4ccccc4)cc3)[C@@H]2C1,-11.3,-7.9

# By substructure, the compounds so far containing an NH in an aromatic ring.
SMILES,Vaccinia inh,Vaccinia inh Venus
COc1ccc2c3c([nH]c2c1)[C@H](CO)N(Cc1cccc(F)c1)CC31CN(CC2CC2)C1,-8.3,-2.2
COCC(=O)N1CC2(C1)CN(Cc1ccccc1Cl)[C@H](CO)c1[nH]c3cc(OC)ccc3c12,8.7,5.4

# New compounds follow.
SMILES,Vaccinia inh,Vaccinia inh Venus
COc1ccc(C(=O)Nc2ccc3c(c2)C(=O)N(C)[C@H]2CC[C@@H](CC(=O)NCC4CC4)O[C@H]2CO3)cc1,-14.6,-8.8
C[C@@H]1CN([C@H](C)CO)C(=O)c2cccc(NC(=O)CCCCCC(=O)Nc3ccccc3N)c2O[C@@H]1CN(C)Cc1ccc(Cl)c(Cl)c1,?,/
CN(C)CCCNC(=O)C[C@H]1C=C[C@@H](NS(=O)(=O)c2ccc(F)cc2)[C@@H](CO)O1,12.6,23.3
COc1ccccc1C#Cc1ccc2c(c1)[C@@H]1[C@@H](CCN1C(=O)c1ccccc1)[C@@H](CO)N2,-12.2,-3.7
Cc1ccc(CN2CC(=O)N3[C@H](CO)[C@@H](c4ccc(-c5ccccc5F)cc4)[C@@H]3C2)cc1,10.0,8.0
OC[C@@H]1Nc2ccc(-c3ccccc3)cc2[C@H]2[C@@H]1CCN2Cc1ccc(F)cc1,-27.3,1.6
COc1ccc2c3c([nH]c2c1)[C@@H](CO)N(C(=O)C1CCC1)CC31CN(C(=O)c2ccccn2)C1,-1.8,-1.5
O=C(NCc1ccccn1)[C@H]1[C@H](CO)[C@H]2Cn3c(cccc3=O)[C@H]2N1CCc1ccccc1,20.7,66.3
COc1ccccc1-c1ccc([C@H]2[C@@H](CO)N3CCCCN(Cc4ccncc4)C[C@@H]23)cc1,0.6,-7.5
COC(=O)C[C@H]1CC[C@H]2[C@@H](COc3ccc(NC(=O)c4ccc(C#N)cc4)cc3C(=O)N2C)O1,-2.3,-10.9
Cc1noc(C)c1NC(=O)Nc1ccc2c(c1)CC(=O)N([C@H](C)CO)C[C@@H](C)[C@H](CN(C)S(=O)(=O)c1ccc(Cl)cc1)O2,15.6,13.7
COc1cccc(-c2cnc3c(c2)C(=O)N([C@@H](C)CO)C[C@H](C)[C@@H](CN(C)Cc2ccncc2)O3)c1,7.2,-4.0
OC[C@H]1[C@@H](c2ccc(-c3cccnc3)cc2)[C@H]2CN(CC3CCOCC3)CCCCN21,23.4,7.8
C[C@H]1CN([C@@H](C)CO)C(=O)c2cccc(NC(=O)Nc3ccccc3)c2O[C@@H]1CN(C)Cc1ccc(C(=O)O)cc1,4.2,1.5
CN(Cc1ccccc1)CC(O)CC(O)c1ccccc1 (stereo not drawn),7.3,3.0
C[C@@H]1CN([C@@H](C)CO)C(=O)c2cccc(NS(=O)(=O)c3cccs3)c2O[C@@H]1CN(C)Cc1ccc(C(=O)O)cc1,8.9,7.5
O=C(NCc1ccncn1)[C@@H]1[C@@H](CO)[C@@H]2Cn3c(ccc(-c4ccc(F)cc4)c3=O)[C@@H]2N1CC1CC1,6.9,12.1
CC(C)CC#Cc1ccc2c(c1)O[C@H](CN(C)C(=O)Cc1ccncc1)[C@H](C)CN([C@H](C)CO)S2(=O)=O,?,/
C[C@H](CO)N1C[C@H](C)[C@@H](CN(C)Cc2ccc(Oc3ccccc3)cc2)Oc2ccc(NC(=O)Nc3ccccc3)cc2CC1=O,?,/
COCC#Cc1cnc2c(c1)C(=O)N([C@H](C)CO)C[C@H](C)[C@@H](CN(C)C(=O)Nc1ccccc1OC)O2,9.5,-0.7

# Reformatted: results already given.
# Below each compound – Vaccinia inh | Vaccinia inh Venus
CC(C)CC#Cc1ccc2c(c1)O[C@H](CN(C)C(=O)Cc1ccncc1)[C@H](C)CN([C@H](C)CO)S2(=O)=O
 : ? | /
C[C@H](CO)N1C[C@H](C)[C@@H](CN(C)Cc2ccc(Oc3ccccc3)cc2)Oc2ccc(NC(=O)Nc3ccccc3)cc2CC1=O
 : ? | /

# Going on with the list.
SMILES,Vaccinia inh,Vaccinia inh Venus
CCCNC(=O)N(C)C[C@H]1Oc2cc(C#CCOC)ccc2S(=O)(=O)N([C@H](C)CO)C[C@H]1C,5.0,0.2
C[C@H](CO)N1C[C@H](C)[C@@H](CN(C)Cc2ccc(F)cc2)Oc2ncc(-c3cncnc3)cc2C1=O,8.1,2.5
C[C@H]1CCCCO[C@@H](CN(C)C(=O)c2ccccc2)[C@@H](C)CN([C@@H](C)CO)C(=O)c2cc(NC(=O)CCC(F)(F)F)ccc2O1,3.7,-5.0
O=C(Nc1ccccc1)N1C[C@H]2[C@@H](c3ccccc31)[C@@H](CO)N2C(=O)c1cccnc1,7.2,5.5
CC(C)NC(=O)N(C)C[C@H]1OCCCC[C@H](C)Oc2ccc(NS(=O)(=O)c3ccc(Cl)cc3)cc2C(=O)N([C@@H](C)CO)C[C@H]1C,7.0,3.2
C[C@@H]1CN([C@H](C)CO)S(=O)(=O)c2ccc(C3=CCCC3)cc2O[C@@H]1CN(C)CC1CC1,-22.6,-30.4
CC(C)NC(=O)N1[C@@H]2CN(C(=O)c3ccncc3)c3ccccc3[C@@H]2[C@@H]1CO,25.3,13.5
COCCNC(=O)C[C@H]1CC[C@@H](NC(=O)NC2CCCCC2)[C@@H](CO)O1,4.4,-2.9
COc1ccc(C#Cc2ccc3c(c2)O[C@H](CN(C)S(=O)(=O)c2ccccc2F)[C@H](C)CN([C@H](C)CO)S3(=O)=O)cc1,0.0&-22.5,-4.9&-4.8
COc1ccccc1C#Cc1ccc2c(c1)O[C@H](CN(C)Cc1ccccc1)[C@H](C)CN([C@H](C)CO)S2(=O)=O,-15.7,-1.2
N#Cc1cccc(-c2ccc([C@H]3[C@@H](CO)N4CCCCN(C(=O)Cc5ccccc5)C[C@@H]34)cc2)c1,-34.1,-27.9
C[C@@H]1CCCCO[C@@H](CN(C)C(=O)NC2CCCCC2)[C@H](C)CN([C@H](C)CO)C(=O)c2cc(NS(=O)(=O)c3ccc(Cl)cc3)ccc2O1,?,/
N#C[C@H]1[C@@H](c2ccc(-c3ccncc3)cc2)[C@@H](CO)N1C(=O)C1CC1,13.5,2.1
C/C=C/c1ccc([C@H]2[C@@H](CO)N(C(=O)C3CC3)[C@@H]2CNC(=O)NC(C)C)cc1,3.7,0.2
CC(=O)NC[C@H]1[C@@H](c2ccc(-c3cccnc3)cc2)[C@@H](CO)N1C(=O)C1CC1,2.0,3.0
CO[C@@H]1CN(C)C(=O)c2cc(NC(C)=O)ccc2OC[C@H](C)N(Cc2ccccc2C(=O)O)C[C@H]1C,6.9,0.6
CO[C@H]1CN(C)C(=O)c2cc(NC(=O)C3CCC3)ccc2OC[C@H](C)N(Cc2ccncc2)C[C@H]1C,4.2,2.2
COCC#Cc1cnc2c(c1)C(=O)N([C@H](C)CO)C[C@@H](C)[C@H](CN(C)C(=O)c1ccc(F)cc1)O2,15.7,12.8

# An excerpt of these results, tab-delimited:
structure	Vaccinia inh	Vaccinia inh Venus
CO[C@@H]1CN(C)C(=O)c2cc(NC(C)=O)ccc2OC[C@H](C)N(Cc2ccccc2C(=O)O)C[C@H]1C	6.9	0.6
CO[C@H]1CN(C)C(=O)c2cc(NC(=O)C3CCC3)ccc2OC[C@H](C)N(Cc2ccncc2)C[C@H]1C	4.2	2.2
